# Sa growth 42C: S. aureus growth inhibition at 42 and 30 °C, primary screen, LtaS inhibitor project, RN4220, two temperatures; OD600, 20 h, 42 °C; hits give low values; relative growth, % (no concentration beside the values); 170,000 compounds, 0.53% hits; AID 720641, 2013;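 active = growth at 42 °C up to 50% and 20 or more points under that at 30 °C, or under 10% at both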;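 note: 300 nL library stock went into each well; scaled to the means of positive and negative controls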
# GIV-Gai inh: inhibitors of GIV peptide binding to Galpha-i3, primary screen, biochemical, fluorescence polarization, FITC-GIV GBA peptide, rat Galphai3; 90 min; hits give low values; scaled: aluminum fluoride 0%, vehicle 100%; percent of control (FP), % (no concentration beside the values); Guanine nucleotide-binding protein G(i) subunit alpha-3 (Rattus norvegicus), P08753; 210,000 compounds, 0.42% hits;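 active = replicate mean at 85% of control or lower, very high polarization wells dropped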;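 note: wells of about 15 µL received 100 nL stock; the first replicate is given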
# Target sequence (P08753 whole entry, looked up): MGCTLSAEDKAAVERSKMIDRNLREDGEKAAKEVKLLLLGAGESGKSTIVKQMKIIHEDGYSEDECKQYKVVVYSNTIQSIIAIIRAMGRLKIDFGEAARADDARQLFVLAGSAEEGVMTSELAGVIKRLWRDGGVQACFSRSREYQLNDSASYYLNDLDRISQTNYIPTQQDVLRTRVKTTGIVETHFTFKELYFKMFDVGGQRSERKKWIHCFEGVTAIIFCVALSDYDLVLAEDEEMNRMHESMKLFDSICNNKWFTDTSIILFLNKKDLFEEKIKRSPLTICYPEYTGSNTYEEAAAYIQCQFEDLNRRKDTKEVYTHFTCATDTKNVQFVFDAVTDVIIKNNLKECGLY
# HCMV UL50-53 inh: inhibitors of HCMV UL50-UL53 interaction, biochemical, HTRF; HCMV UL50-UL53 nuclear egress complex (human cytomegalovirus); inhibition, % (concentration not given with the values); normalized percent inhibition; 190,000 compounds, 0.15% hits;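 active = both replicates at 50% or more, plus weaker picks with an unusually low signal ratio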;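 note: stock transfer was 100 nL into about 20 µL; 0% = negative control wells and 100% = wells with untagged competitor protein; inactives centre near -12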
# Sa growth 42C second temp: also measured in Sa growth 42C; calls as there; relative growth, %; measured here: growth at 30 °C;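 optical density after 20 h as mean of two plates; 100% = untreated growth and lower means inhibition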
# * marks the source's active call; other numbers are inactive results; nt = no result given; & = joins results of further samples.
SMILES,Sa growth 42C,Sa growth 42C second temp,GIV-Gai inh,HCMV UL50-53 inh
CC(C)c1ccc(OCC(=O)NCCS(=O)(=O)N2CCN(c3ccc(F)cc3)CC2)cc1,104,92,107,nt
Cc1nn(-c2ccccc2)c2sc(C(=O)NCCN3C(=O)S/C(=C\c4cccnc4)C3=O)cc12,103,80,nt,-2
CC1CC(C)CN(c2cc(NCCO)c3c4c(onc24)-c2ccccc2C3=O)C1 (stereo not given),99,87,118,-118
NCCCOCC1CCCO1 (stereo not given),74,92,nt,-20
Fc1ccc(-c2nn3c(-c4ccccn4)nnc3s2)cc1,nt,nt,109,-7
CCC(C)NC(=O)/C=C1\Sc2ccccc2NC1=O (stereo not given),125,96,105,nt
COc1ccc(CCN2C(=O)c3ccccc3NC2c2c(C)nn(C)c2C)cc1 (stereo not given),79,95,nt,-14
CCCCCC(=O)NC1(CCC)CCCC1,110,78,105,-9
Cc1ccc(-c2nn(-c3ccc(F)cc3)c3c2cnc2cc(F)c(F)cc23)cc1,108,99,105,-13
Cc1ccc(NC(=O)c2oc3ccc(S(=O)(=O)N4CCC5(CC4)OCCO5)cc3c2C)cc1Cl,91,98,106,nt
COc1ccc(C2C=C(c3ccccc3)Nc3nc(NC(C)=O)nn32)cc1 (stereo not given),95,85,93,-33
COc1ccc(OC)c(-c2cc(C(=O)Nc3cnn(Cc4ccc(Cl)cc4Cl)c3)no2)c1,105,84,102,1
O=C1N(Cc2cccc(C(F)(F)F)c2)c2ccccc2S(=O)(=O)N1c1cccc(Cl)c1,97,93,105,nt
CCOC(=O)c1cc2c(N(C)C)nccc2nc1C(F)(F)F,96,90,106,-50
Cc1ccc2oc(=O)n(CCNC(=O)Nc3ccccc3C)c2c1,99,94,99,14
CCCCc1ccc(N2C(=O)C=CC2=O)cc1,36,0,nt,-27
Cc1ccc(CCCOC(=O)CN2CCOCC2)cc1,133,90,nt,-1
CC(C)n1cnc2nc(CSc3ccc(NC(=O)COc4ccccc4)cc3)cc(=O)n21,nt,nt,103,-11
CCCCn1nc(C)c(/C=N/NC(=O)CN2CCCc3ccccc32)c1Cl,65,64,nt,-11
N#CCCSc1nc2ccccc2n1CCc1ccccc1,103,90,nt,-14
COc1ccc(N=Cc2c(O)[nH]c(=S)[nH]c2=O)cc1,122,94,104,-20
Cc1cc(OCCN2CCCC2)cc(C)c1Cl,106,95,nt,-16
CC(=O)N1CCN(S(=O)(=O)c2ccc(C)cc2)C1c1ccc(N(C)C)cc1 (stereo not given),101,103,101,0
CCc1cc(=O)oc2c(C)c3occc(=O)c3cc12,nt,nt,95,-20
COc1ccc2oc(=O)c(-c3cn4c(n3)sc3cc(OC)ccc34)cc2c1,109,81,98,nt
CCOC(=O)c1c(-c2cccs2)csc1NC(=O)C(F)(F)F,110,77,103,-7
Nc1cc(Cl)ccc1Sc1ccccc1,99,98,nt,-12
O=C(O)/C=C/C(=O)NCc1ccccc1,96,90,nt,-16
COC(=O)c1ccc(COC(=O)c2ccc3c(c2)OCO3)o1,94,88,nt,-17
O=C(/C=[N+](\[O-])C1CCC/C1=N\O)c1ccccc1 (stereo not given),90,78,nt,-37

# Part of the list above, showing only Sa growth 42C second temp, Sa growth 42C and HCMV UL50-53 inh:
Compound	Sa growth 42C second temp	Sa growth 42C	HCMV UL50-53 inh
Nc1cc(Cl)ccc1Sc1ccccc1	98	99	-12
O=C(O)/C=C/C(=O)NCc1ccccc1	90	96	-16

# Additional records follow.
SMILES,Sa growth 42C,Sa growth 42C second temp,GIV-Gai inh,HCMV UL50-53 inh
COC(=O)c1c(C(=O)OC)c2ccncn2c1Cl,106,78,nt,-18
Cc1onc(-c2ccccc2Cl)c1C(=O)NCCOC12CC3CC(CC(C3)C1)C2,96,87,nt,-9
COc1ccc(OCCN(C)C(=O)/C=C/c2nc3ccccc3o2)cc1,106,86,nt,-79
CCOc1ccc(NC(=O)c2cn(CC(C)C)c(=O)c3c2c2ccccc2n3C)cc1,117,93,100,nt
CC1Oc2ccccc2N(CC(=O)Nc2ccc3nc(NS(C)(=O)=O)sc3c2)C1=O (stereo not given),nt,nt,103,-11
Cc1[nH]c(=S)c(C#N)c(-c2ccco2)c1C(=O)O,77,84,nt,-36
CCOC(=O)N1CCc2c(sc3c2c(=O)n(-c2ccc(Cl)cc2)c(=O)n3CC(=O)c2ccc(F)cc2)C1,102,84,124,0
COC(=O)c1cc(OC)c(OC)cc1NC(=O)CSc1nnnn1-c1ccccc1OC,100,102,108,9
Cc1cccc(Cn2c(=O)n(CCC(=O)NCc3ccc4c(c3)OCO4)c(=O)c3sccc32)c1,106,100,108,2
O=C(O)CCc1cnn(-c2ccccc2)c1,85,85,nt,-26

# Individual results from the results shown.
# For HCMV UL50-53 inh, COc1ccc(OCCN(C)C(=O)/C=C/c2nc3ccccc3o2)cc1 has the entry -79
# For HCMV UL50-53 inh, CCOC(=O)N1CCc2c(sc3c2c(=O)n(-c2ccc(Cl)cc2)c(=O)n3CC(=O)c2ccc(F)cc2)C1 has the entry 0
# For GIV-Gai inh, CC1Oc2ccccc2N(CC(=O)Nc2ccc3nc(NS(C)(=O)=O)sc3c2)C1=O (stereo not given) has the entry 103
# For Sa growth 42C, Cc1[nH]c(=S)c(C#N)c(-c2ccco2)c1C(=O)O has the entry 77
# For HCMV UL50-53 inh, Cc1cccc(Cn2c(=O)n(CCC(=O)NCc3ccc4c(c3)OCO4)c(=O)c3sccc32)c1 has the entry 2
# For Sa growth 42C second temp, COC(=O)c1cc(OC)c(OC)cc1NC(=O)CSc1nnnn1-c1ccccc1OC has the entry 102
# For Sa growth 42C, O=C(O)CCc1cnn(-c2ccccc2)c1 has the entry 85

# Next entries:
SMILES,Sa growth 42C,Sa growth 42C second temp,GIV-Gai inh,HCMV UL50-53 inh
CCOc1ccccc1NC(=O)CN1C(=O)COc2ccc(S(=O)(=O)NC3CCCC3)cc21,98,86,103,nt
Cc1ccc(CSC2=Nc3ccccc3C3=NC(CCC(=O)NC4CCCCC4)C(=O)N23)cc1 (stereo not given),116,106,108,nt
CCN1C(=O)C2(c3ccccc31)C(C(=O)Nc1ccc(Br)cc1)CC1CSCN12 (stereo not given),nt,nt,109,-29
CCOc1c(OC)cccc1C1CC(=O)Nc2c1c(C)nn2-c1nncc(-c2ccc(C)cc2)n1 (stereo not given),nt,nt,98,-52
COC(=O)c1ccc(Nc2ncnc3c2nc2n3CCCC2)cc1,89,81,107,nt
Cn1c(-c2cccc(Br)c2)cnc1NCc1cccc(F)c1,88,71,105,-6
CCC1CCCCN1S(=O)(=O)c1ccc(C(=O)Nc2sc3c(c2C(=O)NC)CCC3)cc1 (stereo not given),111,96,103,nt
Cc1ccc(C2N(Cc3ccccc3)CCCN2Cc2ccccc2)o1,106,106,105,-8
CN1C(=O)CS/C1=C\C(=O)C(C)(C)C,75,86,nt,-27
COc1ccc(CCNc2ncc3c(n2)CC(c2ccc(C)cc2)CC3=O)cc1 (stereo not given),113,90,96,-2
COc1ccccc1NC(=O)Cn1c(=O)n(Cc2ccccc2)c(=O)c2c1c1cc(C)ccc1n2C,111,91,105,nt
CCOC(=O)c1cc(-c2ccccc2)n(CCCC(=O)Nc2cc(C)ccc2OC)c1C,104,91,102,nt
CCCC1Cc2[nH]c(=O)c(C(=O)O)cc2CO1 (stereo not given),94,96,104,10
COc1ccccc1OC(=O)C1CCCCC1,100,102,97,-4
CC1(C)CC(=O)C2=C(C1)Nc1[nH]c(=S)[nH]c(=O)c1C2c1ccc(O)cc1 (stereo not given),96,90,95,-12
CCCCOc1ccc(C(=O)N(Cc2ccc(N(C)C)cc2)Cc2ccco2)cc1,94,77,108,-9
CN1CCN(CCNC(=O)c2cc3n(n2)CCCN(Cc2ccccc2)C3=O)CC1,nt,nt,101,-21
CCN(CC)C(=O)c1ccccc1OC,101,96,109,2
Cc1ccc(CN2CC(C(=O)NCC(=O)OCc3ccccc3)CC2=O)cc1 (stereo not given),92,93,nt,7
CCOC(=O)c1cccc(NC(=O)c2cc3ccccn3n2)c1,104,90,104,nt
CCN(CC)S(=O)(=O)c1ccc(C(=O)Nc2cccc3c2C(=O)c2ccccc2C3=O)cc1,nt,nt,102,-9
O=C(Nc1cccc2c1CCCC2)N1CCC(CN2CCCCC2)CC1,90,107,101,14
Cc1ccc2c(Cn3nnc4ccccc4c3=O)cc(=O)oc2c1,108,100,nt,-2
COC(=O)c1c(C)[nH]c(C(=O)C(C)Sc2nnc(-c3ccccc3)o2)c1C (stereo not given),120,91,nt,0
NC(=O)COc1ccc(-c2noc(-c3cccs3)n2)cc1,107,88,102,-1
Cc1ccc(Sc2c(C)nn(C(=O)COc3ccccc3)c2C)cc1,106,96,96,-7
Cn1c(=O)c2c(-c3cccc(Br)c3)c(NCc3ccccc3)oc2n(C)c1=O,nt,nt,107,-1
O=C(CCCc1nc(-c2ccc(Cl)cc2)no1)Nc1nncs1,nt,nt,103,-10
Cc1c(C(=O)NC2CCCCC2)sc2nc3n(c(=O)c12)CCC3,nt,nt,110,7
O=C(CSc1ncnc2c1cnn2-c1ccccc1Cl)N1CCCc2ccccc21,nt,nt,102,-4
CC(C)CCOc1cccc(C2c3c(oc4ccccc4c3=O)C(=O)N2CCCN2CCOCC2)c1 (stereo not given),81,83,106,-4
CC(C)(C)N(Cc1ccccc1)C(=O)CSc1nncs1,95,80,nt,-5
N#Cc1c(N2CCN(C=O)CC2)nc(N)c2c(N)nc3c(c12)CC(=O)N3Cc1cccs1,89,98,nt,1
O=C(COc1ccc2oc3c(c2c1)CCCC3)Nc1ccccc1,119,84,103,-11
CN(C)S(=O)(=O)c1ccc(C(=O)NCc2nc3ccccc3n2C)cc1,101,93,nt,2
CC(C)COC(=O)/C(C#N)=C\c1ccc(-c2ccccc2Cl)o1,90,81,104,-54
O=C(NC1CCCCCC1)c1cccc(-n2cnnc2)c1,91,80,96,-33
COc1ccc(OCc2nnco2)cc1,107,94,110,-3
COC(=O)c1cc(OC)c(OC)cc1NC(=O)C(C)C,93,92,nt,6
CC(C)COc1ccc2c(c1)c1c3c([n+](C)ccn32)CCC1,79,36,107,nt
O=c1nc(Nc2ccccc2)cn[nH]1,78,84,101,-30
C=CCN=c1scc(-c2ccccc2)n1/N=C/c1ccc(O)cc1O,81,70,nt,0
O=C1CCC(C(=O)OCC(=O)C23CC4CC(CC(C4)C2)C3)N1 (stereo not given),105,86,nt,-33
COc1ccc(NC(=O)Cn2c(=O)oc3ccccc32)cc1,104,86,96,nt
CCOc1ccc(-c2nc3c(c(SCC(N)=O)n2)Cc2cccc(C)c2O3)cc1,nt,nt,102,-26
Cc1c(CCC(=O)NN)c(C)n2c(nc3ccccc32)c1C#N,87,77,nt,-48
CC(=C(C#N)C#N)c1ccc2c(c1)OCO2,69,76,nt,-43
CCc1ccc(NC(=O)CSc2nc3ccccc3c(=O)n2CCCN2CCC(C)CC2)cc1,117,91,105,nt
COc1ccc(S(=O)(=O)N2CCc3cc4cccc(C)c4nc32)cc1C,nt,nt,101,-16
Cc1ccc(NC(=O)CCS(=O)(=O)c2cc(Br)cc3c2N(C(=O)C2CC2)CC3)cc1,110,98,102,0

# New compounds follow.
SMILES,Sa growth 42C,Sa growth 42C second temp,GIV-Gai inh,HCMV UL50-53 inh
c1ccc(-c2nc(-c3cccnc3)no2)cc1,99,62,102,-10
CS(=O)(=O)Nc1cc(C(=O)O)ccc1N1CCN(c2cccc(Cl)c2)CC1,nt,nt,105,-28
CNc1c(NS(=O)(=O)c2ccc(C)cc2C)c(=O)oc2ccccc12,80,87,102,nt
NC(=O)c1ccc[n+](CC(=O)N2CCCCC2)c1,114,84,104,nt
COC(=O)c1ccc(-c2nnc(Nc3ccc(Cl)cc3)c3ccccc23)cc1,nt,nt,98,-16
COc1ccccc1Nc1c2c(nc3ccc(NC(=O)c4ccc(N(C)C)cc4)cc13)CCCC2,115,92,106,-24
Cc1ccc(C(=O)NCCc2cn3ccccc3n2)cc1,103,97,106,-6
COc1ccccc1N1CCN(c2ncnc3c2cnn3-c2ccc(C)cc2)CC1,131,89,102,nt
O=P(OCC1CC1)(c1ccccc1)c1ccccc1,112,86,95,-8
Cc1ccc(C)c(S(=O)(=O)c2nnn3c2nc(NC(C)C)c2sccc23)c1,74,80,101,nt
CC1CSc2ccc(S(=O)(=O)N3CCOCC3)cc2N(CC(=O)N(C)c2ccccc2)C1=O (stereo not given),nt,nt,98,-29
CCn1cc(C(=O)NC(=S)Nc2sc3c(c2C(=O)OC)CCCCCC3)cn1,116,88,106,-5
Cc1c(NC(=O)CSc2ncn[nH]2)c(=O)n(-c2ccccc2)n1C,nt,nt,102,-35
CC(C)(C)C(=O)NC(C(=O)O)C12CC3CC(CC(C3)C1)C2 (stereo not given),119,90,nt,-7
COc1cc(OC)cc(C(=O)Nc2cc(C)nn2-c2nc(C)cc(=O)[nH]2)c1,nt,nt,97,-21
COC(=O)c1ccc(NC(=O)CC2Sc3ccc(C(F)(F)F)cc3NC2=O)cc1 (stereo not given),105,79,104,nt
Cc1ccc(C(=O)CC2(O)C(=O)N(Cc3ccccc3)c3ccccc32)c(C)c1 (stereo not given),92,34,106,-3
CCOC(=O)c1sc(N)c(C(=O)OCC)c1COC(=O)c1cnc(C)cn1,67,97,nt,-35
O=C(Nc1ccc(Cl)cn1)c1cc(-c2ccccc2)nc2ccccc12,nt,nt,98,-6
CCc1ccc(NC(=O)Cc2csc(COc3cccc(C)c3)n2)cc1,108,88,106&105,-10&0

# Compounds were not picked by outcome, and some 0.79% of all compounds hit somewhere here.
